ClpP mod: qHTS Assay for Activators of ClpP; actives 1.9% (n = 340,000); purified B. subtilis ClpP, FRET peptide cleavage, 20 min; AID 651965, 2013; Potency, µM (titrated, usually from 57.5 µM), for inactives: top-dose activity change, negative = active; ATP-dependent Clp protease proteolytic subunit (Bacillus subtilis (strain 168)), P80244; active = well fitted falling curve with a large enough effect; inconclusive = small, poorly fitted or top-dose-only effect; inactive = no such curve, though single readings can be large or run the other way; further: the source files actives as falling curves though it sought activators and does not explain the sign; nearly all actives have a fitted effect of over 65% in size; many hits overshoot -100%
Target sequence (P80244 whole entry, looked up): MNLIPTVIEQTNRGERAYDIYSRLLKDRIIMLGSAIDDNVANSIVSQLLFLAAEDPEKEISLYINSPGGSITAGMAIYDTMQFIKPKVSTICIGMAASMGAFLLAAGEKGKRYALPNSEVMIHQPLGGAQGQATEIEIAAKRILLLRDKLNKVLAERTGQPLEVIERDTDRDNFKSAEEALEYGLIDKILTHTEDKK
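Purified B. subtilis ClpP, 10 microg/mL final in Tris/HCl pH8 with KCl, BSA, glycerol and Tween-20, cleaved an Abz/nitrotyrosine-quenched decapeptide. Fluorescence (ex 320, em 430) was read at 0 and 20 min at room temperature. Delta was normalized to 5.8 microM ADEP and DMSO/no-enzyme controls.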
The depositor's hits bear a star; ? = inconclusive. Potency means the concentration at half of the fitted maximal effect.

SMILES	ClpP mod
Cc1ccc(Cl)cc1N1CCN(C(=O)CCNS(=O)(=O)c2ccc3c(c2)CCN3C(=O)C2CC2)CC1	-2.5%
Cc1ccc(NC(=O)CN2C(=O)CCc3cc(S(=O)(=O)N4CCCCC4)ccc32)cc1C	-0.8%
Cc1ccc(Nc2nnc(-c3ccc(C)c(S(=O)(=O)N4CCN(C)CC4)c3)c3ccccc23)c(C)c1	0.8%
Cc1cc(F)ccc1NS(=O)(=O)c1ccc(-n2cccn2)cc1	?
Cc1cc(NC(=O)c2cc(Cl)ccc2Cl)ccc1-c1cc2ccccc2oc1=O	11.2µM*
Cc1ccc(C(c2c(O)cc(C)n(Cc3ccco3)c2=O)N2CCC(C)CC2)cc1 (stereo unspecified)	0.8%
CCOc1cc(CNc2ccc(O)cc2)cc(Cl)c1OCc1ccccc1	-6.0%
Cc1cccc(N2C(=O)N(Cc3cccc(C#N)c3)c3ccccc3S2(=O)=O)c1	-3.7%
COc1cccc(NS(=O)(=O)c2ccc3[nH]cc(C(=O)NC4CCCCC4)c(=O)c3c2)c1	-14.8%
CC(=O)Nc1ccc(NC(=O)CCCn2nc(C)c3sc4ccccc4c3c2=O)cc1	0.0%
Cc1cccc(Nc2c3c(nc4nncn24)CCC3)c1C	-0.7%
CC(C)Cn1c(=O)c2ccccc2n2c(CCC(=O)N3CCN(c4cccc(Cl)c4)CC3)nnc12	-3.4%
COc1ccc(OC)c(NC(=O)CSC2=Nc3ccccc3C3=NC(CCC(=O)NC4CCCCC4)C(=O)N23)c1 (stereo unspecified)	-13.5%
Cc1ccc(-n2c(=O)c3cccnc3n2CC(=O)Nc2ccc(Br)cc2)cc1C	3.7%
COc1ccccc1NC(=O)CSc1nc(-c2cccc(Cl)c2)nc2c1Cc1c(CO)cnc(C)c1O2	2.7%
C(=C\c1nc2ccccc2s1)/c1ccc2c(c1)OCO2	4.3%
CCN1C(=O)C(O)(c2c[nH]c3ccccc23)c2cc(Br)ccc21 (stereo unspecified)	-0.9%
Cc1cc2oc(C(=O)Nc3sc4c(c3C(=O)NCC3CCCO3)CCC4)cc(=O)c2cc1C (stereo unspecified)	-3.6%
CCOc1ccc(C2c3c(oc4ccc(C)cc4c3=O)C(=O)N2CCCN2CCOCC2)cc1 (stereo unspecified)	-6.4%
Cc1cccc(C(=O)N2CCNC(=O)C2CC(=O)Nc2ccc(F)cc2)c1 (stereo unspecified)	0.0%
CC(C)(C)OC(=O)N1CCC(c2c(C(=O)N3CCN(c4cccc(Cl)c4)CC3)cnn2-c2cccc(Cl)c2)CC1	1.3%
O=C1CN(C(=O)Nc2ccccc2Cl)C(c2ccccc2)c2c(sc3c2CCCC3)N1 (stereo unspecified)	-2.4%
Cc1ccc2c(c1)C(=O)OC(C(=O)Nc1ccc(C(=O)O)cc1)C2 (stereo unspecified)	-3.4%
COC(=O)c1c(SCC(=O)Nc2cccc(C(F)(F)F)c2)[nH]c2ccccc2c1=O	-6.8%
CCCn1c2ccccc2c2cnn(CC(=O)N(C)c3ccc(F)cc3)c(=O)c21	5.2%
CCOc1ccccc1Nc1nc2ccccc2nc1NS(=O)(=O)c1ccc(Cl)cc1	-7.9%
Cc1ccc(CNC(=O)C2CCN(S(=O)(=O)c3cc(-c4noc(C)n4)ccc3C)CC2)cc1	-1.0%
COc1ccc(Cn2c(C(=O)O)c(CNC3CCCCCC3)c3ccc(OC)cc32)cc1	-26.4%
CCOc1ccc2nc(N3CCCC(C(=O)Nc4cc(C)ccc4C)C3)sc2c1 (stereo unspecified)	-2.5%
CC1CCCCN1c1cc2c(cc1F)c(=O)c(S(=O)(=O)c1ccccc1)cn2Cc1ccccc1 (stereo unspecified)	15.8µM*
Cc1ccc(-n2c(=O)c3c(c4cc(C)ccc4n3C)n(CC(=O)NCCC3=CCCCC3)c2=O)cc1	4.8%
Cc1cc(C)c2c(-n3cccc3)c(C(=O)NCCc3ccc(Cl)cc3)sc2n1	0.9%
COc1ccc(-c2nc3n(n2)C(c2ccc(O)cc2)C(C(=O)Nc2cccnc2)=C(C)N3)cc1OC (stereo unspecified)	-9.1%
Cc1cccc(C)c1NC(=O)c1csc2c1CCCC2	0.5%
COc1cccc(NC(=O)Cn2c(=O)n(CCCCC(=O)NCc3ccc4c(c3)OCO4)c(=O)c3ccccc32)c1	?
Cc1cc(=O)n(CC(=O)N2CCN(c3ccc(F)cc3)CC2)c2c1c(C)nn2C	-7.0%
CCOc1cc(C2Nc3ccccc3C(=O)N2Cc2ccco2)ccc1O (stereo unspecified)	4.2%
Cc1cccc(S(=O)(=O)c2cn(C)c3cc(N4CCCCCC4)c(F)cc3c2=O)c1	-17.9%
CCc1ccc(CNC(=O)CCn2c(=O)c3cccn3c3ccc(F)cc32)cc1	-2.3%
O=C(Nc1cccc(C(F)(F)F)c1)c1cc2nc(-c3ccco3)cc(C(F)(F)Cl)n2n1	-7.0%
Cc1cc(C)cc(NC(=O)N2CCC(C(N)=O)(N3CCCCC3)CC2)c1	-1.8%
Cc1cccc(C)c1-n1ncc(C(=O)N2CCN(c3ccccc3)CC2)c1C1CCN(C(=O)OC(C)(C)C)CC1	0.0%
Cc1ccc(NC(=O)CCSc2nc(-c3ccc4c(c3)OCO4)cc(C(F)(F)F)n2)cc1	4.2%
COc1ccc2c(Sc3ccccc3)c(C(=O)NCCN(C)C)[nH]c2c1	-3.3%
CC(NC(=O)CSc1nc(-c2cccc(Cl)c2)nc2cc(=O)[nH]n12)c1nc2ccccc2n1C (stereo unspecified)	-5.6%
Clc1ccc(/C=C/c2ccc3ccccc3n2)cc1Cl	?
O=C(C[n+]1ccccc1)c1ccc(I)cc1	-1.9%
CCC(=O)N1c2ccccc2CC1C(=O)NCCCN1CCN(c2ccccc2)CC1 (stereo unspecified)	0.7%
CC(=O)N1CCCc2cc(S(=O)(=O)N3CCC(C(=O)NCCC(C)C)CC3)ccc21	-1.7%
CCOc1cccc(CC(=O)N2CCc3c([nH]c4ccccc34)C2c2ccc(C)cc2)c1OCC (stereo unspecified)	-6.5%
COc1ccccc1OCC(=O)NCC1(N2CCOCC2)CCCCC1	-3.2%
CCOc1ccc(NC(=O)C2CCCN(c3nnc(-n4c(C)ccc4C)s3)C2)cc1 (stereo unspecified)	0.0%
Cc1cccc(S(=O)(=O)c2cn(Cc3ccc(F)cc3)c3cc(N4CCCCC4)c(F)cc3c2=O)c1	-7.7%
COc1ccc(CN2COc3ccc4c(-c5ccccc5)cc(=O)oc4c3C2)cc1OC	?
Cc1ccc(C2=Nc3ccccc3NC(c3ccncc3)=N2)cc1	-3.4%
O=C(Cn1ncc2c3ccccc3n(Cc3ccccc3F)c2c1=O)NC1CCCCCC1	-8.9%
CC(C)Oc1ccc(CNC(=O)c2ccc3nc(Cc4ccccc4)oc3c2)cc1	3.6%
COC(=O)c1cc2oc(C)cc2n1Cc1ccc(C)cc1	-7.7%
Cc1ccc(OCC(=O)Nc2ccccc2C(=O)OCc2cc(=O)n3ccsc3n2)cc1	-7.3%
Cc1ccc(S(=O)(=O)NCCSc2nnnn2-c2ccc(Cl)c(C(=O)O)c2)cc1	-3.9%

Grouped by structure, the entries above containing a thiophene ring, fused or not.
SMILES	ClpP mod
CC(=O)Nc1ccc(NC(=O)CCCn2nc(C)c3sc4ccccc4c3c2=O)cc1	0.0%
Cc1cc2oc(C(=O)Nc3sc4c(c3C(=O)NCC3CCCO3)CCC4)cc(=O)c2cc1C (stereo unspecified)	-3.6%
O=C1CN(C(=O)Nc2ccccc2Cl)C(c2ccccc2)c2c(sc3c2CCCC3)N1 (stereo unspecified)	-2.4%
Cc1cc(C)c2c(-n3cccc3)c(C(=O)NCCc3ccc(Cl)cc3)sc2n1	0.9%
Cc1cccc(C)c1NC(=O)c1csc2c1CCCC2	0.5%

Molecules shown so far that contain a furan ring, fused or not, in the order listed:
SMILES	ClpP mod
Cc1ccc(C(c2c(O)cc(C)n(Cc3ccco3)c2=O)N2CCC(C)CC2)cc1 (stereo unspecified)	0.8%
CCOc1cc(C2Nc3ccccc3C(=O)N2Cc2ccco2)ccc1O (stereo unspecified)	4.2%
O=C(Nc1cccc(C(F)(F)F)c1)c1cc2nc(-c3ccco3)cc(C(F)(F)Cl)n2n1	-7.0%
COC(=O)c1cc2oc(C)cc2n1Cc1ccc(C)cc1	-7.7%

Later entries.
SMILES	ClpP mod
O=C1CCCc2[nH]c(=O)c(C(=O)NCc3ccccc3)cc21	-24.7%
O=C(Nc1ccc(OC(F)(F)F)cc1)C1CCN(S(=O)(=O)c2ccc3[nH]c(=O)ccc3c2)CC1	-12.5%
COC(=O)CNC(c1ccccc1)c1cc(Br)ccc1NC(=O)c1ccc(Cl)cc1 (stereo unspecified)	5.5%
Cc1nc2nc(SCC(=O)NCCc3ccc(Cl)cc3)nn2c(C)c1Cc1ccccc1Cl	-9.2%
O=[N+]([O-])c1ccc(-c2csc(Nc3ccccc3)n2)cc1	0.9%
Cc1ccc(C(=O)Nc2nnc(S(=O)(=O)N(C)Cc3ccc(Cl)cc3)s2)cc1	-9.1%
COc1cccc(NC(=O)CSC2=Nc3ccccc3C3=NC(CCC(=O)NCCc4ccccc4)C(=O)N23)c1 (stereo unspecified)	-28.3%
CCCC(=O)Nc1cccc(-c2cn3c(C)csc3n2)c1	-0.4%
O=C(Cc1cccs1)NC1CC(=O)N(c2ccc(Cl)cc2)C1 (stereo unspecified)	0.5%
CCCCc1oc2ccccc2c1C(=O)c1cc(I)c(N(CC)CCOCC)c(I)c1	-2.0%
CC(C)(C)c1ccc(C(=O)Nc2nc3nc(-c4ccccc4)cc(=O)n3[nH]2)cc1	-8.1%
CC(C)(C)c1ccc(OCC(=O)Nc2ccc(S(=O)(=O)Nc3ncccn3)cc2)cc1	-0.4%
Cc1ccc(Cn2c(=O)n(Cc3ccc(Cl)cc3)c(=O)c3cccnc32)cc1	?
COCCCNC(=O)c1ccc(Cn2c(=O)c3ccccc3n(Cc3c(C)cc(C)cc3C)c2=O)cc1	-2.9%
O=C1c2ccccc2C(=O)N1c1nc(-c2ccc(F)cc2)cs1	0.1%
NCCCN(Cc1ccc(Cl)cc1)c1ccc(Br)cn1	-5.1%
COc1ccc(C2Nc3ccccc3C(=O)N2Cc2ccco2)cc1 (stereo unspecified)	4.3%
Cc1nc(SCc2cc(=O)c3cccc(F)c3[nH]2)n[nH]1	0.2%
COc1ccc(C2C(=O)N(C3CCCCC3)CC(=O)N2CCC2=CCCCC2)cc1 (stereo unspecified)	-2.7%
Cc1cc(-c2ccccc2)n2nc(-c3ccc(Cl)cc3)cc2n1	-8.6%
O=C(CN1C(=O)CCc2cc(Br)ccc21)Nc1ccc(OC(F)(F)F)cc1	-0.3%
CCOC(=O)c1[nH]c(C)c(CCC(=O)NCc2cccc(Cl)c2)c1C	-0.2%
COc1ccc(CN(Cc2ccccc2)C(=O)c2ccncc2)cc1COc1ccc(NC(C)=O)cc1	1.4%
COc1cc(OC)c(NC(=O)c2ccc3c(Cl)c4c(nc3c2)CCCC4)cc1Cl	-3.8%
CCc1ccccc1NC(=O)Cn1nc(C(F)(F)F)c2c1CCCC2	-0.2%
CCCCN(C)CCCNC(=O)c1cc(-c2ccc(Br)s2)nc2ccccc12	4.4%
COc1ccc(CCNC(=O)c2ccc3c(c2)CCN3S(C)(=O)=O)cc1	-0.1%
COc1cc2c(=O)n(Cc3ccco3)c(=O)n(CC(=O)Nc3ccc(F)cc3)c2cc1OC	?
COc1cccc(NC(=O)Nc2ccc3nc(N4CCN(C)CC4)cc(C)c3c2)c1	3.8%
O=C(CCSCc1ccccc1Cl)N1CCN(c2ccc(F)cc2)CC1	-1.2%

A run of entries from the list above, as a working copy:
SMILES	ClpP mod
NCCCN(Cc1ccc(Cl)cc1)c1ccc(Br)cn1	-5.1%
COc1ccc(C2Nc3ccccc3C(=O)N2Cc2ccco2)cc1 (stereo unspecified)	4.3%
Cc1nc(SCc2cc(=O)c3cccc(F)c3[nH]2)n[nH]1	0.2%

(listing goes on)
SMILES	ClpP mod
CCOc1ccc(N(C(=O)c2ccc(OC)cc2)S(=O)(=O)c2ccc3c(c2)n(C)c(=O)n3C)cc1	-2.3%
COc1ccc(C2c3[nH]c4ccccc4c3CCN2C(=O)CCC2CCCC2)cc1 (stereo unspecified)	-1.1%
COC(=O)c1ccccc1NC(=O)C1CCCN(c2nnc(C)c3c(C)n(-c4ccccc4)nc23)C1 (stereo unspecified)	1.4%
CC(C)Oc1ccc(CNC(=O)Cn2ncn3nc(-c4cccs4)cc3c2=O)cc1	-24.5%
COc1ccc(-c2cn3nc(N4CCCC(C(=O)Nc5ccccc5OC)C4)sc3n2)cc1 (stereo unspecified)	1.2%
O=C1c2[nH]nc(-c3ccccc3O)c2C(c2ccc(Cl)cc2)N1Cc1ccco1 (stereo unspecified)	-2.5%
Cc1[nH]c2ccccc2c1SCCNC(=O)c1ccccc1F	-1.4%
COC(=O)c1cc(Cl)ccc1NC(=O)Cn1c(C)cc(C)c(C#N)c1=O	4.0%
CCS(=O)(=O)c1ncc(N(Cc2ccccc2)Cc2ccco2)c(C(=O)Nc2cccc(Cl)c2C)n1	-6.5%
O=C(c1ccc(Cl)cc1)n1nc(-c2cccnc2)nc1NCc1ccc(F)cc1	0.5%
O=C(CSc1nc(=O)n(Cc2ccncc2)c2c1CCC2)Nc1ccccc1	-2.9%
CCOc1ccc(Nc2nc3ccccc3c3nnc(CC)n23)cc1	10.3%
COc1ccc(CCNc2nc(-c3ccc(Cl)cc3)cc(C(F)(F)F)n2)cc1OC	-9.6%
Cc1cccc(Cn2c(C)c(C)c3cc(C(=O)NCc4ccc(C)o4)ccc32)c1	-21.9%
CCOc1ccccc1C(=O)NCC(c1ccc(N(C)C)cc1)N1CCCC1 (stereo unspecified)	0.6%

High-throughput results deposited in PubChem BioAssay by National Center for Advancing Translational Sciences (NCATS).

Not all compounds are listed; the hit share may differ from the screen's.
